Source: PubChem BioAssay (several laboratories)
RecA intein inh = inhibitors of M. tuberculosis RecA intein splicing; inhibition, %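 (about 9 µM by stock and volumes)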; cell-free RecA intein splicing, fluorescence; actives 0.75% (n = 290,000); P9WHJ3; in the data active = inhibition above about 30%; inconclusive = no clear call, values can overlap the other calls;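 also: 0% = vehicle wells and 100% = reference inhibitor control wells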
Target sequence (P9WHJ3 whole entry, looked up): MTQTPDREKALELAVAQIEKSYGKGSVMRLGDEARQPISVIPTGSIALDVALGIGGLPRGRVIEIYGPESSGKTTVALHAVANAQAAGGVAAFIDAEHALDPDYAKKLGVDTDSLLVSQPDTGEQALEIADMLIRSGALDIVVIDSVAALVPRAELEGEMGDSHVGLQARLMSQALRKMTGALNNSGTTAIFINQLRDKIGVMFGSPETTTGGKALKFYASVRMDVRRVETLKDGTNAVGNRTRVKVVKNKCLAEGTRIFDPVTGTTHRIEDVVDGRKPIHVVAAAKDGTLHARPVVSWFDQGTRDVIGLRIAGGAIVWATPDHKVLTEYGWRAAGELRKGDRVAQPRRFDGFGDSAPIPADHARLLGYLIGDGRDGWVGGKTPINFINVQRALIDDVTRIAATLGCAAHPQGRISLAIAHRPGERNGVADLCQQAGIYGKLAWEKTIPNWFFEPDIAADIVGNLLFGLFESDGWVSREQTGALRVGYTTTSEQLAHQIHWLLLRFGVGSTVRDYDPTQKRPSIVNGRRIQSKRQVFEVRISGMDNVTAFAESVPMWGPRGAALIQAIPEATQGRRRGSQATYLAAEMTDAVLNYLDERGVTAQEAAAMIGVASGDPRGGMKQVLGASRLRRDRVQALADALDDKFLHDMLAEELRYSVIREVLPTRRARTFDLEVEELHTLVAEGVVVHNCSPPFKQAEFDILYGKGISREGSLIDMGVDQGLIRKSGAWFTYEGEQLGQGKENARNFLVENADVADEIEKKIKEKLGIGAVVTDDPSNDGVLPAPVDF
Mtb bLac sens = beta-lactam sensitization of Mtb H37Rv | M. tuberculosis H37Rv growth with meropenem, percent inhibition; hits of this screen are not shown here | inhibition, % at 25 µM | actives 0.27% (n = 330,000);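 active = about 74% or more and at least 40 points above the plate without the antibiotic, then above 30% in a dose series; inconclusive = first-round hits that could not be retested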;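 also: growth measured after seven days incubation then overnight dye step; 0% = bacteria only wells and 100% = bacteria with antibiotic; twin plates without the antibiotic show which effects depend on it; some results filed as inactive read as strong as hits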
Mtb growth = M. tuberculosis H37Rv growth inhibitors, H37Rv strain (AID 1626) | M. tuberculosis H37Rv growth inhibition; higher % means a stronger effect | inhibition, % at 10 µM, or IC50 in µM where a hit was titrated | actives 0.95% (n = 220,000);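 active = confirmed in a dose series; inconclusive = inhibition above 80% but not taken into the dose series; inactive = below 80% or under 30% at every dose of the series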;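 also: bacteria incubated seven days before Alamar blue readout; 0% = bacteria only wells and 100% = bacteria with antibiotic wells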
Arbovirus inh = antivirals against arbovirus infection; arbovirus infection cell-based antiviral screen; inhibition, % at 10 µM; actives 0.37% (n = 200,000); AID 1251;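 active = inhibition from about 30%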;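 also: bluetongue infection of BSR cells; cell survival read as ATP light after 72 h; 0% = infected wells without compound and 100% = uninfected wells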
YopH inh = YopH (Yersinia) phosphatase inhibition; fluorescence Ex485/Em525; actives 0.16% (n = 140,000); inhibition, %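 (about 10 µM by stock and volumes)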; AID 898;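 active = inhibition of 50% or more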;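 also: controls were vehicle for no effect and minimum signal wells for full effect; inactives centre near -20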
Arbovirus inh repeat = also measured in Arbovirus inh; calls as there; inhibition, %; measured here: 10K subset replicate screen; many hits read low in the repeat;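 first of two repeat runs on a subset; 0% = infected and 100% = uninfected wells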
* = called active by the depositor; ? = inconclusive; nt = no result given. An excerpt, so the mix of outcomes need not match the whole.

The first 5 entries, to show the layout:
SMILES	RecA intein inh	Mtb bLac sens	Mtb growth	Arbovirus inh	YopH inh	others
COC(=O)c1ccc(/C=C2\N=C(SC)SC2=O)cc1	0.4	1	38%	-12	-21
Cc1cccc(C(=O)Nc2ccc(C(=O)N/N=C/c3ccco3)cc2)c1	0.2	-8	nt	nt	nt
COc1ccc(CC(=O)N/N=C/c2cc([N+](=O)[O-])cc(Br)c2O)cc1	6.8	5	nt	nt	nt
CNc1oc(-c2ccc(F)cc2)nc1S(=O)(=O)c1ccccc1	-0.8	3	nt	nt	nt
CC(C)n1cc(/C=N/NC(=O)COc2cccc3cccnc23)c2ccccc21	-5.9	-5	4%	17	5

The listing, from the first entry:
SMILES	RecA intein inh	Mtb bLac sens	Mtb growth	Arbovirus inh	YopH inh	others
COC(=O)c1ccc(/C=C2\N=C(SC)SC2=O)cc1	0.4	1	38%	-12	-21
Cc1cccc(C(=O)Nc2ccc(C(=O)N/N=C/c3ccco3)cc2)c1	0.2	-8	nt	nt	nt
COc1ccc(CC(=O)N/N=C/c2cc([N+](=O)[O-])cc(Br)c2O)cc1	6.8	5	nt	nt	nt
CNc1oc(-c2ccc(F)cc2)nc1S(=O)(=O)c1ccccc1	-0.8	3	nt	nt	nt
CC(C)n1cc(/C=N/NC(=O)COc2cccc3cccnc23)c2ccccc21	-5.9	-5	4%	17	5
N/C(=N\OC(=O)c1cccc2ccccc12)c1ccc(Br)cc1	0.1	21	10%	5	-22
Cc1ccsc1-c1ccnc(-n2cccc2)n1	5.8	5	nt	-5	-13
Cc1ccc(S(=O)(=O)N2CCN(C(=O)CSc3ccc(F)cc3)CC2)cc1	-1.6	-1	nt	nt	nt
O=C(NNc1ccc(F)cc1F)c1c(F)cccc1Cl	-0.8	91	48%	nt	nt
O=C(Nc1ccc(S(=O)(=O)N2CCCc3ccccc32)cc1)C1CCCO1 (stereo not given)	-0.8	-3	-3%	1	-13
CSCc1cc(N(C)C)nc(SCc2ccc(Cl)cc2Cl)n1	11	13	7%	16	-36
O=C1c2cccc3cccc(c23)C(=O)N1CCCSc1ncn[nH]1	-0.1	-4	-3%	10	nt
CCN=C1SC(CC(=O)Nc2ccc(C)cc2)C(=O)N1CC (stereo not given)	-0.4	-9	-2%	4	-37
Cc1cc(NC(=O)CN2C(=O)NC(CCc3ccccc3)C2=O)no1 (stereo not given)	1.3	1	1%	-1	nt
CN(C(=O)c1cccnc1)c1nnc(-c2cnccn2)s1	0.7	-3	-7%	-1	-33
CC(=O)Nc1ccc(NC(=O)c2cc[n+]([O-])cc2)cc1	-0.1	4	nt	nt	nt
CC1Cc2cc(/C(O)=C3/C(=O)C(=O)N(CCN4CCOCC4)C3c3ccc(N(C)C)cc3)ccc2O1 (stereo not given)	-4.4	-4	nt	nt	nt
CCc1nnc(NC(=O)CSc2nc(C3CCCCC3)nc3ccccc23)s1	1.5	5	-6%	13	-5
O=[N+]([O-])c1ccc(-n2nncc2-c2ccccc2)cc1	-5.2	-2	nt	nt	nt
COc1ccccc1CCNCc1ccc(OC)c(OCc2ccccc2)c1	3.8	-2	3%	-33	-31
CCOc1cc(C(=O)OCC(=O)N(C)c2ccccc2)cc(OCC)c1OCC	1.3	-11	nt	nt	nt
O=C(O)c1cc(N=Nc2c(O)[nH]c3ccc([N+](=O)[O-])cc23)ccc1Cl	3.5	0	nt	nt	nt
CCN=C1SC(C(=O)Nc2cc(Cl)cc(Cl)c2)CC(=O)N1CC (stereo not given)	3.7	1	nt	19	nt
COC(=O)c1ccc(CSc2nnc(N)s2)o1	-2.2	-7	-7%	-3	nt
COc1cc2cc(CN(CCc3cccc(C)c3)C(=S)NCCCN3CCOCC3)c(=O)[nH]c2cc1OC	-4.8	27	-2%	-4	nt
Cc1cc(C)nc(NC(=NCCc2c[nH]c3ccccc23)NC(=O)Nc2cccc([N+](=O)[O-])c2)n1	-2.9	57	28%	-11	-30
COC(=O)c1c(NC(=O)CSc2nnc(C)c(=O)[nH]2)sc(C)c1C	-1.2	-5	7%	5	nt
Brc1ccc(/C=C/C=N/Nc2nc3ccccc3s2)cc1	nt	17	8%	-16	-4
COCCn1c(-c2cccc(Br)c2)nc2c(c(=O)c3ccccc3n2C)c1=O	-0.4	-10	4%	nt	nt
Cc1[nH]c2ccccc2c1C(=O)C(=O)N1CCCc2ccccc21	0.1	2	3%	-2	8
CC(C)CC(=O)Nc1ccccc1-c1nnn(CC(=O)N2CCOCC2)n1	-2.0	2	-2%	1	-5
COc1ccc(Nc2nc(N)nc(CSC(=S)N3CCCCC3)n2)cc1	3.3	-3	10%	2	nt
NC(=O)c1c(NC(NC(=O)c2ccco2)(C(F)(F)F)C(F)(F)F)sc2c1CCCC2	-2.0	-7	-9%	3	-48
Cc1noc(C)c1COC(=O)c1ccccc1Sc1ccccc1C#N	-1.5	-9	3%	-6	-14
Cc1ccc(-c2nnc(Oc3ccc(NC(=O)c4ccccc4)cc3)c3ccccc23)cc1	-0.3	10	7%	-36	-13
NC(=O)CN1CCN(C(=O)Nc2ccccc2)CC1	2.8	-2	1%	6	-17
Cc1ccc(NC(=O)C2CCCN2C(=O)NC2CCCCC2)c(C)c1 (stereo not given)	0.5	-3	-9%	-4	-173
CC(C)CC(=O)Nc1ccc(C(=O)NN2C(=O)c3ccccc3C2=O)cc1	2.2	1	4%	-5	-39
CCCC/C=C1\CCc2c([nH]c3ccccc23)C1=O	4.4	-2	-3%	1	nt
Cc1ccccc1-n1c(=O)cc(N2CCc3ccccc3C2)[nH]c1=O	-1.0	-9	1%	-3	-23
CCOC(=O)c1nn(-c2ccc(C)cc2)c(=O)cc1OCC(=O)N1CCN(c2ccccc2)CC1	1.1	0	nt	nt	nt
COc1ccc(NC(=O)NC2CC3CCCC(C2)N3Cc2ccccc2)cc1 (stereo not given)	-0.8	-5	4%	8	-107
CC(=O)c1ccc2c(c1)N(C)c1ccccc1S2	4.0	15	1%	4	-12
O=C1c2ccccc2S(=O)(=O)c2cc(N3CCN(c4ccccc4)CC3)ccc21	-1.7	-2	-1%	nt	nt
Cc1ccc(NC(=O)Cn2c(O)c(N=NC(=O)c3ccncc3)c3ccccc32)cc1	-1.0	0	-1%	-15	nt
CCOC(=O)/C=C1\CN(Cc2cc(OC)c(OC)c(OC)c2)S(=O)(=O)c2ccccc21	2.6	-3	nt	nt	nt
O=C1CCCC(NCCCCCCNC2=C([N+](=O)[O-])C(=O)CCC2)=C1[N+](=O)[O-]	nt	nt	-1%	1	-25
COc1cc(C(=O)Nc2cc(C(F)(F)F)ccc2N2CCOCC2)ccc1O	0.4	5	11%	-9	-25
COc1ccc(S(=O)(=O)N2CCC(C(=O)NCc3cccnc3)CC2)cc1C	1.7	4	nt	nt	nt
Cn1c(CO)cnc1SCc1ccc(F)cc1	-2.5	-1	9%	6	nt

Part of the list above in order of molecular weight, descending:
SMILES	RecA intein inh	Mtb bLac sens	Mtb growth	Arbovirus inh	YopH inh	others
Cc1ccc(NC(=O)Cn2c(O)c(N=NC(=O)c3ccncc3)c3ccccc32)cc1	-1.0	0	-1%	-15	nt
CC(=O)c1ccc2c(c1)N(C)c1ccccc1S2	4.0	15	1%	4	-12
Cn1c(CO)cnc1SCc1ccc(F)cc1	-2.5	-1	9%	6	nt

Further entries follow:
SMILES	RecA intein inh	Mtb bLac sens	Mtb growth	Arbovirus inh	YopH inh	others
O=C(Nc1cccnc1)c1ccc(Cl)c(S(=O)(=O)N2CCCC2)c1	3.7	3	nt	nt	nt
Clc1ccccc1Cc1noc(CN2CCN(c3cnccn3)CC2)n1	-1.1	-5	-3%	3	nt
C/C(=N\NC(=O)c1cccs1)c1cccnc1	1.6	0	-7%	12	nt
O=c1cc(N2CCOCC2)cnn1-c1ccccc1	-0.6	-5	-3%	1	-31
CC1Nc2ncnc(N3CCc4ccccc4C3)c2N(Cc2ccc(Br)cc2)C1=O (stereo not given)	35*	3	nt	nt	nt
COC(=O)c1c(C)[nH]c(C(=O)OCC(=O)NC(C)(C)C)c1C	-3.2	1	-7%	6	nt
CC(C)(C)c1ccc(C(=O)NCC(=O)NNC(=O)c2ccccc2O)cc1	-0.1	0	nt	nt	nt
CN(C(=O)CSc1nnc(-c2c[nH]c3ccccc23)o1)C1CCS(=O)(=O)C1 (stereo not given)	-1.7	-2	1%	1	nt
O=C(Cn1nc(-c2ccccc2F)ccc1=O)Nc1ccc(S(=O)(=O)N2CCCCCC2)cc1	-0.8	10	10%	-3	-11
CC(C)Oc1cccc(C(=O)O)c1	-2.2	-4	2%	12	-27
CS(=O)(=O)N1CCN(c2nc(-c3ccc(F)cc3)cs2)CC1	1.7	-4	-11%	3	-6	Arbovirus inh repeat=3
CN(C)S(=O)(=O)c1ccc(NC(=O)c2cccnc2)cc1	-1.3	-7	-14%	7	-34
COc1ccc2nc(NC(C)=O)sc2c1	2.2	-3	-3%	-9	-8
CCN1C(=O)[C@H]2[C@@H](c3ccc(C)cc3)N3C(=O)N(c4ccc(C)cc4)C(=O)[C@@]3(Cc3ccccc3)[C@H]2C1=O	3.4	-9	nt	nt	nt
O=C(c1cc(N2CCOCC2)c(F)cc1[N+](=O)[O-])N1CCOCC1	1.7	-1	nt	nt	nt
O/N=C/c1ccccc1OCc1ccc(Cl)cc1	9.5	10	6%	11	-21
Cc1ccccc1N=C1Nc2ccccc2CS1	-0.2	-13	8%	-7	-9
CCOc1cc(/C=C2/SC(=O)N(CC(=O)N3CCc4ccccc4C3)C2=O)ccc1OCC(=O)O	4.3	44	3%	-7	-83
Cc1[nH]nc2c1-c1nc3ccccc3nc1C(C)(C)C2	0.0	75	1%	33*	-19
Cc1ccccc1NC(=O)c1ccc2c(c1)OCCO2	0.4	-9	-12%	3	-5
CN(C)C1=NC(N(C)C)=NP(N(C)C)(N(C)C)=N1	-0.9	3	-6%	1	-45
CCOC(=O)C[n+]1ccc2c([nH]c3ccccc32)c1C	-72	-2	nt	nt	nt
COc1ccccc1-c1ccc(/C=C2/C=C(C)OC2=O)o1	-6.6	6	-2%	1	-10
O=C(COC(=O)/C=C/c1ccc(C(F)(F)F)cc1)NCc1ccco1	2.6	-3	nt	nt	nt
CCc1c(C)nc(N2CCN(c3ccc(F)cc3)CC2)[nH]c1=O	-1.2	-3	nt	nt	nt
COc1cc2c(cc1NC(=O)CN(C)Cc1ccc(OC)c(OC)c1)oc1ccccc12	3.0	36	65%	-8	-25
Cc1ccc(NC(=O)CSc2nnc(CCNC(=O)OC(C)(C)C)o2)c(C)c1	-3.3	6	-2%	7	-12
CCOc1ccc(N(CC(=O)N/N=C/c2ccc(OC(C)C)cc2)S(C)(=O)=O)cc1	-0.8	1	-8%	-1	-27
O=C1CC(c2ccc(O)cc2)Oc2cc(O)cc(O)c21 (stereo not given)	0.7	-3	-9%	-1	-35
Cc1ccc(N2C(=O)C3C(C(=O)c4ccccc4)=NN(c4ccccc4)C3C2=O)cc1 (stereo not given)	-54	-9	9%	-4	-10
CCOC(=O)Nc1c(C(=O)OC)[nH]c2cccc(OC)c12	-0.6	-9	-3%	-2	-13
CN(C(=O)c1ccco1)c1nc2c(s1)CCCC2	1.1	2	86%	-3	-11
COc1ccc(NC(C)=O)cc1NC(C)c1nc2sc(C)c(C)c2c(=O)[nH]1 (stereo not given)	-5.6	32	6%	6	nt
CCC(C(=O)N/N=C(\C)c1cccnc1)c1ccccc1 (stereo not given)	2.8	10	nt	nt	nt
CCOC(=O)C1(C/C(C)=N/NC(N)=O)CC(C)(C)OC1=O (stereo not given)	-5.9	2	-4%	3	-11
CCCCNC(=O)c1sc2nc(C)cc(COC)c2c1-n1cccc1	0.4	?	nt	-6	-31
COC(=O)c1ccc(/C=N/NC(=O)CC(=O)NCc2cccnc2)cc1	0.0	-2	7%	3	nt
Cc1c(C(=O)N2CCN(CCc3ccccc3)CC2)oc2ccccc12	5.4	?	-1%	-2	-31	Arbovirus inh repeat=-3
COc1ccc(N(CC(=O)Nc2ccc(C(N)=O)cc2)S(=O)(=O)c2ccc(C)c([N+](=O)[O-])c2)cc1	-1.1	-3	-1%	-2	nt
Cc1ccc(C)n1-n1cnc2sc3c(c2c1=O)CCC3	1.7	-1	4%	8	-33
CC(=O)Nc1cccc(NC(=O)COC(=O)CO/N=C(\C)c2ccc3c(c2)OCO3)c1	1.5	2	nt	nt	nt
COC(=O)c1cc(C(=O)OC)n(Cc2ccc(F)cc2)n1	0.2	4	-3%	4	9
Cc1nn2c(N)csc2nc1=O	-19	-3	-10%	9	-5
OC(CN1CCCCC1)Cn1c2ccc(Cl)cc2c2cc(Cl)ccc21 (stereo not given)	5.7	100	nt	nt	nt
